NPYLR7 agonist = activates Aedes aegypti NPYLR7 receptor; HEK293T NPYLR7/Galpha15, GCaMP6s calcium fluorescence; activation, % at 10 µM; 0.15% of 270,000 active; AID 1259423; in the data active = activation above about 40%;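 note: 0% = vehicle and 100% = reference agonist at the receptor; some compounds past the cut are filed as inactive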
NPYLR7 agonist max-min = further read-out of NPYLR7 agonist, marked with its call; activation, %; measured here: Max-Min RFU normalised activation; some inactives read as strong as hits;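 span of the calcium signal over five minutes; 0% = vehicle and 100% = native peptide agonist; compound fluorescence can raise it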
* marks the source's active call; other numbers are inactive results; & = joins results of further samples.

SMILES	NPYLR7 agonist	NPYLR7 agonist max-min
O=C(Cc1c[nH]c2ccccc12)N1CCC(O)(C(=O)O)CC1	8	9
CCOC(=O)c1ccc(NC(=O)C2CC(=O)N(C)C(=Nc3ccc(C(=O)OC)cc3)S2)cc1 (stereo not drawn)	5	4
Cc1nn(-c2nc(C)c(C)c(=O)[nH]2)c(C)c1CCC(=O)Nc1ccccc1C(N)=O	3	-3
C=CCONC(=O)c1c(C)nn(-c2c(Cl)cc(Cl)cc2Cl)c1C	10	7
O=C(c1nn(-c2ccc(F)cc2)c(=O)n(Cc2cccc(Cl)c2)c1=O)N1CCCC1	5	19
Cc1onc(-c2ccccc2Cl)c1C(=O)Nc1ccccc1N(C)C(=O)c1ccccc1	-15	-18
Cc1onc(-c2c(F)cccc2Cl)c1C(=O)N1CCC(C)CC(C)(C)C1 (stereo not drawn)	-9	-14
O=C(Nc1nccs1)C1CC1c1ccccc1 (stereo not drawn)	2	6
Cc1ccc(-n2c(C)c(C)n3c4c(=O)n(CCN5CCOCC5)c(=O)n(C)c4nc23)cc1C	9	4
O=C(c1ccno1)N(Cc1ccccc1)c1nc2c(F)cc(F)cc2s1	-3	-9
CC1=NC2=C(C(=O)CC(c3ccccc3)C2)C(c2ccccc2Cl)C1C(=O)OCCOc1ccccc1 (stereo not drawn)	4	8
Cc1cccc(Oc2cnn(C)c(=O)c2Nc2cccc(C(=O)N3CCN(C)CC3)c2)c1C	8	16
COc1cc(-c2nc3cc(C)ccn3c2NC(C)(C)CC(C)(C)C)ccc1OC(=O)c1cc(Cl)cc(Cl)c1	12	12
O=C(c1ccc2ncsc2c1)N1CCN(C(=O)c2cccs2)CC1	5	0
C[C@](N)(Cc1ccc(O)c(O)c1)C(=O)O	-8&-4&4	-13&-7&-26
COc1cc(NC(=O)Cc2noc3ccccc23)cc(OC)c1OC	3	0
CC1CCCC(C(=O)N2CCC3(CCCc4ccccc43)C2)C1 (stereo not drawn)	2	34
O=C(c1csc(-c2ccccc2)n1)N1CCN(S(=O)(=O)c2ccccc2F)CC1	2	3
C/C(=C\c1ccco1)CN1CCc2c([nH]c3ccccc23)C1c1cccc(C)n1 (stereo not drawn)	14	6
Cc1[nH]nc2ncc(CNC3CCCCNC3=O)cc12 (stereo not drawn)	-3	-5
CCOC(=O)c1nn(-c2ccc(F)cc2)c(=O)cc1OS(=O)(=O)c1ccc(Br)cc1	-2	-1
CCOC(=O)C1CCCN(C(c2ccc(OC)cc2)C2Sc3nc(CC)nn3C2=O)C1 (stereo not drawn)	-2	12
CSc1nnc2c(n1)OC(c1ccccn1)Nc1ccccc1-2 (stereo not drawn)	4	0
Fc1ccc(-n2c(COc3ccccc3)n[nH]c2=S)cc1	-8	-9
CNC(=O)Cn1cc(OCc2ccccc2C)c(=O)cc1CO	9	6
Cc1nc(-c2ccccc2)c(C(=O)N2C[C@@H](N)C[C@H]2C(=O)NC(C)C)s1	-4	-5
Cc1noc(C2CCCN2C(=O)c2cccc(NCc3sccc3C)c2)n1 (stereo not drawn)	12	8
CC1(C)C2CC[C@@]1(CS(=O)(=O)N1CCC[C@@H]1C(=O)NCCCNC(=O)c1ccccc1)C(=O)C2	18	13
CC(C)c1ccc(Nc2cc3c(cn2)ncn3CC2CC2)cc1	5	4
Nc1ncccc1CN1CCC(Cc2cccc(C(=O)O)c2)C1 (stereo not drawn)	13	10
CC1CCCN(CC(O)COc2ccc(F)cc2Cl)C1 (stereo not drawn)	2	2
CCN(CC1=CCN(C)CC1)C(=O)CCOC	3	3
CCN1CCC(CNS(=O)(=O)c2cn(CC)nc2C)C1 (stereo not drawn)	-1	-4
O=S(=O)(NC1(c2ccc3c(c2)OCCO3)CCCC1)c1cccnc1	-3	-2
CCC(C)c1ccc(C(=O)COC(=O)c2ccccc2N(C)S(C)(=O)=O)cc1 (stereo not drawn)	-5	-6
CN(C)C=Nc1nc2ccccc2s1	18	17
O=C(NCCc1nnc2ccc(SCc3cccc4ccccc34)nn12)c1ccccc1	-24	-22
CCOc1ncccc1C(=O)N1CCOC(Cc2ccc(OC)cc2)C1 (stereo not drawn)	5	0
CC(=O)c1cccc(NC(=O)N2CCC(Cc3ccc(-c4ccccc4)cc3)CC2)c1	3	14
C=CCN(C(=O)c1ccccc1NC)C(C)C	3	4
CCOc1ccc(S(=O)(=O)N2CCN(C(C)=O)CC2)cc1OCC	10	2
C=CCNC(=O)N(C)CCc1ccc(Br)cc1	5	5
COc1ccc(-c2[nH]ncc2CN2CCCC2c2nonc2C)c(F)c1 (stereo not drawn)	1	1
CCN(CC)Cc1cnc2c(C(=O)NCC3CCCO3)cnn2c1 (stereo not drawn)	3	1
COc1ccc(-c2ccc(SCC(=O)c3ccccc3)nn2)cc1OC	-2	-3
Cc1ccc2nc(C)n(C3CCN(C(=O)Cc4cc(F)cc(F)c4)CC3)c2c1	35	27
O=C(CSc1nnnn1-c1cccc(F)c1)N1CCc2ccccc21	10	4
COc1ccc(C(=O)N(Cc2ccccc2)C2CCC(NC(=O)C3CCN(C(=O)c4ccccc4Cl)CC3)CC2)cc1 (stereo not drawn)	45*	47*
Cc1ccc(CN(Cc2ccc(F)cc2)C(=O)CN(C2CCCCC2)S(=O)(=O)c2ccccc2)s1	-2	4
CCN(C)c1c(C)nc2c(OCC(=O)c3ccc(Cl)cc3Cl)cccn12	12	5
Cc1ccc(C(=O)N2CCN(S(=O)(=O)N3CCN(C)CC3)CC2)cc1-n1cccc1	5	3
COc1ccc(CC2CCN(C(=O)c3ccccc3OC)CC2)cc1	17	12
Cc1cc(CNC(=O)C2CCCN(C(=O)NC3CCCC3)C2)no1 (stereo not drawn)	15	11
CSc1ccc(NC(=O)NCc2cccnc2N(C)C)cc1	6	2
COc1cc2nc(-c3ccc(Cl)c([N+](=O)[O-])c3)oc(=O)c2cc1OC	4	2
CCOc1ccccc1N(Cc1nnc2n1CCCCC2)C(=O)Nc1ccc(OC)cc1	22	17
COC(=O)CC(=O)NC1CCN(c2ccccc2C(=O)NCCc2cccs2)CC1	3	7
CCOc1ccc2ccccc2c1C(=O)Nn1cnc2c(cnn2-c2ccc(C)cc2)c1=O	5	3
CC(=O)c1cc(C(=O)NC2CC(=O)N(C3CCCCCC3)C2)[nH]n1 (stereo not drawn)	12	10
CC(C)(C)n1nc2c(c1NC(=O)c1ccc(Br)cc1)CSC2	-3	-5

Single values from above:
Under NPYLR7 agonist max-min, Cc1cc(CNC(=O)C2CCCN(C(=O)NC3CCCC3)C2)no1 (stereo not drawn) is listed with 11
Under NPYLR7 agonist, CCOc1ccccc1N(Cc1nnc2n1CCCCC2)C(=O)Nc1ccc(OC)cc1 is listed with 22

The listing continues.
SMILES	NPYLR7 agonist	NPYLR7 agonist max-min
CCc1cnc(N2CC[C@@H](c3ccc4ccccc4c3)[C@H](O)C2)nc1	33	24
COc1cc(C(=O)Nc2cc(F)cc(F)c2)cc(OC)c1OCC(N)=O	0	7
COc1ccc(S(=O)(=O)NCCc2csc3nc(-c4cccc(F)c4)nn23)cc1C	6	3
Cc1nn(CN2CCN(c3ccccc3)CC2)c(=O)c2ccccc12	0	5
COCc1cc(=O)[nH]c(N=C(N)Nc2ccc(Oc3ccccc3)cc2)n1	3	4
CN1c2ccccc2C(C)(C)C12C=Cc1cc(O)ccc1O2 (stereo not drawn)	2	1
Cc1[nH]cnc1CSCCNC(=O)CC1COCCN1 (stereo not drawn)	-4	-4
COC(=O)C(C)CN(C)C(=O)C(c1cc(Cl)cc(Cl)c1)N(C)C (stereo not drawn)	5	3
CN(CCc1ccccc1)C1(C(=O)N2CC[C@H](O)C2)Cc2ccccc2C1	4	1
c1ccc(Oc2ccccc2-c2cnn3c(NCCc4ccccn4)ccnc23)cc1	-3	-5
CN1CCN(C(=O)C2CNCCN2C(=O)c2ccc(Cl)cn2)CC1 (stereo not drawn)	9	3
CCS(=O)(=O)N1C[C@@H](C(N)=O)[C@@H]2Oc3c(C)cccc3[C@@H]21	3	5
Cc1csc(C(C#N)C(=O)CCC(=O)c2ccc3c(c2)CCCC3)n1 (stereo not drawn)	2	2
CC(=O)N1CCC(C(=O)NC2CC(C)(C)Oc3cc(C)ccc32)CC1 (stereo not drawn)	2	2
O=C(Nc1ccc(CC(=O)N2CCC(O)CC2)cc1)c1cc(Cl)ccc1Cl	-9	-10
FC(F)(F)c1nnc2n1CCN(c1nc(C3CC3)ns1)C2	0	-1
O=C(Nc1cnn(-c2ccccc2F)c1)N1CCOC2(CCCC2)C1	1	-1
CCCCN(C(=O)c1cc(C)nc2onc(C)c12)c1ccccc1	-1	-3
CN(Cc1nc2c(s1)CCCC2)C(=O)c1cn(CC2CCCNC2)nn1 (stereo not drawn)	13	9
O=C(N=C1N=C2C=CC(Cl)=CN2Cc2ccccc21)c1ccc([N+](=O)[O-])o1	12	13
Cc1nc(N2CCCCC2)ncc1-c1cc(=O)[nH]c(N2CCC(C)CC2)n1	-1	32
O=C(COc1ccccc1)N(Cc1cccnc1)c1nc2c(F)cccc2s1	-2	-2
CCCCc1nc(-c2nccn2CCN2CCNC2=O)c(Cl)[nH]1	-1	-6
COc1cccc(CCN2CCC(C(=O)N(C)C(c3ccccc3C)c3ncccc3C)CC2)c1 (stereo not drawn)	25	15

Gathered by group, those above with a COOH group
SMILES	NPYLR7 agonist	NPYLR7 agonist max-min
O=C(Cc1c[nH]c2ccccc12)N1CCC(O)(C(=O)O)CC1	8	9
C[C@](N)(Cc1ccc(O)c(O)c1)C(=O)O	-8&-4&4	-13&-7&-26
Nc1ncccc1CN1CCC(Cc2cccc(C(=O)O)c2)C1 (stereo not drawn)	13	10

Continued.
SMILES	NPYLR7 agonist	NPYLR7 agonist max-min
O=C(NC1(Cc2ccc(Br)cc2)CCCCC1)C1CCN(C(=O)c2ccoc2)CC1	-7	-7
O=C(O)CCN1C(=O)/C(=C\c2ccc(-c3cccc(C(F)(F)F)c3)o2)SC1=S	-6	-10
COc1ccc(C2=CC(=C(C#N)C#N)c3cc4c(cc3O2)OCO4)cc1	1	2
O=C(NCc1cccnc1OC1CCCC1)C1CC2CCC1C2 (stereo not drawn)	7	5
O=C(CCOCc1ccccc1)Nc1cc(Cl)ccc1NC1CC1	10	8
Cc1cc2oc3c(c(=O)c2cc1Cl)C(c1cccc(Cl)c1)N(C)C3=O (stereo not drawn)	5	-1
CN(CC1(CO)CCC1)C(=O)Cc1noc2ccccc12	16	11
CCn1c(C)cn2c3c(=O)[nH]c(=O)n(C)c3nc12	0	-1
COc1ccc(OCc2cccnc2Cl)cc1	6	5
COc1ccc(S(=O)(=O)N2CCCC(C)C2)cc1N1CCN(C(=O)c2c(OC)cccc2OC)CC1 (stereo not drawn)	14	-1
COc1ccc(NC(=O)NCCNc2ccc(Nc3cccc(C)n3)nn2)cc1	0	-1
COc1ccc(-n2c(C)cc(/C=C/[N+](=O)[O-])c2C)cc1Cl	0	18

Record cards, from the list above. Screens in order: NPYLR7 agonist	NPYLR7 agonist max-min
Listed for O=C(NC1(Cc2ccc(Br)cc2)CCCCC1)C1CCN(C(=O)c2ccoc2)CC1 → -7	-7
Listed for COc1ccc(C2=CC(=C(C#N)C#N)c3cc4c(cc3O2)OCO4)cc1 → 1	2

(next part)
SMILES	NPYLR7 agonist	NPYLR7 agonist max-min
Cc1nc(C2CCCNC2)cc(N2CCC3(CC2)CNC(=O)O3)n1 (stereo not drawn)	1	1
Cc1nc(C)c(C(=O)Nc2ccccc2N(C)C2CCCC2)o1	1	0
O=C(O)[C@@H]1C[C@@H](O)[C@H](O)[C@@H]2NC(=S)N(CCN3CCOCC3)[C@@H]21	-13	-18
Cc1onc(-c2ccccc2)c1C(=O)NCc1ccc(Cl)cc1	-1	-3
CN=c1scc(-c2ccc(OC(F)F)cc2)n1N=Cc1c(OC)cc(OC)cc1OC	-5	-7
Cc1ccc(-n2nnc(C(=O)OCc3ccc(F)cc3)c2C)cc1Cl	7	-2
CCC(C)N(CC(=O)N(Cc1ccccc1)Cc1cccn1C)C(=O)C(C)(C)CCl (stereo not drawn)	-6	-3
Cn1c(=S)[nH]c2cc(S(N)(=O)=O)ccc21	5&2	4&7
CS(=O)(=O)c1ccc(Br)c(S(=O)(=O)NCc2csc(=O)[nH]2)c1	4	1
Oc1cc(-c2cccc(Cl)c2)cc2c1OCCN(CCN1CCOCC1)C2	4	2
COc1ccc2nc(-c3ccc(C)c(NS(=O)(=O)c4ccc(F)c(C)c4)c3)cn2n1	-8	-13
C=CCn1c2ccc(C)cc2c2nc3ccccc3nc21	-6	-8

A second format for part of the listing above.
Cc1ccc(-n2nnc(C(=O)OCc3ccc(F)cc3)c2C)cc1Cl
  NPYLR7 agonist: 7
  NPYLR7 agonist max-min: -2

CCC(C)N(CC(=O)N(Cc1ccccc1)Cc1cccn1C)C(=O)C(C)(C)CCl (stereo not drawn)
  NPYLR7 agonist: -6
  NPYLR7 agonist max-min: -3

Oc1cc(-c2cccc(Cl)c2)cc2c1OCCN(CCN1CCOCC1)C2
  NPYLR7 agonist: 4
  NPYLR7 agonist max-min: 2

CS(=O)(=O)c1ccc(Br)c(S(=O)(=O)NCc2csc(=O)[nH]2)c1
  NPYLR7 agonist: 4
  NPYLR7 agonist max-min: 1

Screens as filed in PubChem BioAssay.

Not all compounds are listed, so the mix of outcomes need not match the whole.
